# Rce1 inhib – yeast Ras-converting enzyme inhibition; Q03530; yeast membranes, quenched prenylated peptide cleavage fluorescence; calls only; hit rate 0.27% among 290,000;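 active = fall in fluorescence gain of 50% or more versus controls, with final raw signal at or below 3038400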;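 also: plate controls were neutral control wells for no effect and wells lacking membranes for full effect; tested at 10 µM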
# Target sequence (Q03530 whole entry, looked up): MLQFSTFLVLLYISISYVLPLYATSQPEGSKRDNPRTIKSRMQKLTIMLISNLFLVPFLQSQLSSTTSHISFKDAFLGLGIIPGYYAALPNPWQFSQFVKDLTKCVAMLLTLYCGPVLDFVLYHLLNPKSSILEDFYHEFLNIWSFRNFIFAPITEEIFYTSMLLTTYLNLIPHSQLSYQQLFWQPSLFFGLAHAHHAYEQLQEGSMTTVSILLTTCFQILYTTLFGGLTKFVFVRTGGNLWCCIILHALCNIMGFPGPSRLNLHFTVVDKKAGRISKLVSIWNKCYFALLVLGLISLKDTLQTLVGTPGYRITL
# HIV Env fusion – blocks HIV Env-driven cell-cell fusion | HeLa-JRFL Env/CEM21 cell fusion, luciferase | hit rate 1.1% among 360,000 | inhibition, % at 12.3 µM;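 active = mean replicate inhibition score of at least 50 and every replicate individually at or above 50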;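 also: 0% = plate neutral controls and 100% = maraviroc near 300 nM; one replicate is shown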
# CSC inhib – blocks cancer stem cells. inhibition, % at 7.5 µM. cancer stem cell-like cells viability, luminescence. hit rate 1.1% among 300,000;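 active = mean at 75% or more and at least half the replicates too; tested in HMLE shEcad cells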;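 also: 0% = median of negative and 100% = median of positive control wells; the first replicate is given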
# PABP polyA inh – PABP-poly(A) binding inhibition; hit rate 1% among 290,000; PABP-poly(A) RNA binding, fluorescence polarization; AID 2014; inhibition, % at 35 µM; P11940;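 active = 50% or more with normal probe brightness, or confirmed in later tests; about a fifth of its hits are not listed in these tables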;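 also: calls also rest on retests at 20 µM and on dose response follow-up; controls were probe without protein and protein plus probe with vehicle; some compounds called inactive have numbers as strong as hits; many hits fall short of the cut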
# Target sequence (P11940 whole entry, looked up): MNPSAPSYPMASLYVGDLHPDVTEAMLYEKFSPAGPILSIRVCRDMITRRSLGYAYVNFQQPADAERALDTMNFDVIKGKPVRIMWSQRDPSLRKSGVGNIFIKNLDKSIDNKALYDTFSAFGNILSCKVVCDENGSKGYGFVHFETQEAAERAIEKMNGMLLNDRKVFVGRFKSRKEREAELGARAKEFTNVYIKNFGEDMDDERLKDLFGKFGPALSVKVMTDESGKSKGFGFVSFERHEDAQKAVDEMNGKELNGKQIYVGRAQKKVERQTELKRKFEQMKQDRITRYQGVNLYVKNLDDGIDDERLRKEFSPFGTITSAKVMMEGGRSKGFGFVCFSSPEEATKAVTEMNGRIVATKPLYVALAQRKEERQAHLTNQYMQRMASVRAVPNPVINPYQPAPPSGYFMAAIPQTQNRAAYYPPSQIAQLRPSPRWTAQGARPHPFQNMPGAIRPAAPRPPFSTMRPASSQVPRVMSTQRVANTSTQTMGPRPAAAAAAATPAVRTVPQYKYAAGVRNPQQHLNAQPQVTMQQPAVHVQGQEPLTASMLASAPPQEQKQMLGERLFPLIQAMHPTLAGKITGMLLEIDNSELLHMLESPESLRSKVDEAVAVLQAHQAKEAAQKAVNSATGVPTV
# MT1-MMP act inh – MT1-MMP (human) activation inhibition; GFP/RFP ratio change, % at 20 µM; P50281; hit rate 0.061% among 360,000; HT1080 RFP-PRO-GFP cells, GFP/RFP ratio fluorescence, overnight; percent of plate control window, DMSO zero; AID 651647;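 active = GFP/RFP ratio change of at least 30% with cell ATP level not reduced by more than half and red fluorescence within 50% of control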; also: strong numbers were not always called active
#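 Material – HT1080 RFP-PRO-GFP cells · Control set – DMSO wells and RFP-L50D-GFP cells · Incubation – overnight cell settling, then overnight compound exposure, 37 °C, 5% CO2 · Compound dosing – single-point 20 µM compound, 1% DMSO · Read-out – GFP/RFP fluorescence ratio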
# Yeast UUG start – yeast start codon fidelity modulation; S. cerevisiae UUG-firefly luciferase reporter, luminescence/redox ratio; activity score, % at 18.7 µM; hit rate 0.13% among 350,000; AID 602363;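 active = replicate mean at a twofold rise or more, about +100% in these data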;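 also: firefly luciferase made from a UUG start codon reports start codon fidelity; reporter light over untreated wells divided by growth signal over untreated wells; some hits fall short of that in this replicate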
# eIF4H inh – inhibitors of RNA binding by human eIF4H; Q15056; eIF4H fluorescence polarization binding assay; inhibition, % at 35 µM; hit rate 0.94% among 290,000; AID 2012;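 active = 50% or more with normal probe brightness, or confirmed in later tests; about a fifth of its hits are not listed in these tables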;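 also: calls also rest on retests at 20 µM and on dose response follow-up; 0% = protein and probe with vehicle and 100% = probe without protein; strong numbers were not always called active; many hits fall short of the cut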
# eIF4H inh retest – recorded beside eIF4H inh, whose call it bears; inhibition, %; compound at 20 µM; confirmation average;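 mean of two retest wells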
# PABP polyA inh retest – further read-out of PABP polyA inh, marked with its call; inhibition, %; compound at 20 µM; confirmation repeats;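 mean of two retest wells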
# MT1-MMP act inh RFP – second read-out of MT1-MMP act inh, no call of its own (marks repeat the call); RFP signal change, %; measured here: RFP expression control read;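 0 = vehicle wells; hits needed this value within 50% of zero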
# An asterisk follows results filed as active; i = inactive; . = no result given; & = joins results of further samples; [ ] = another dose, or the depositor's remark. These rows are one share of the data; count on the stated rates, not on these rows.
# The opening 16 compounds as a preview:
SMILES,Rce1 inhib,HIV Env fusion,CSC inhib,PABP polyA inh,MT1-MMP act inh,MT1-MMP act inh RFP,Yeast UUG start,eIF4H inh,others
CC(C)=CCc1c(O)c(CC=C(C)C)c2occ(-c3ccc(O)cc3)c(=O)c2c1O,i,.,100*,9,-5,-9,-6,-11,
O=C(Nc1c(C(=O)N2CCOCC2)cnn1-c1ccccc1)c1ccccc1,i,-52,3,0,0,3,-19,-2,
CSC(=O)CC(=O)NC(=O)c1ccccc1,i,-23,-3,7,-5,-2,-10,-2,
CCN(CC)S(=O)(=O)c1ccc(NC(=O)COC(=O)CNC(=O)C2CCCCC2)cc1,.,-14,.,.,1,4,-2,.,
NS(=O)(=O)c1ccc(N2CCN(S(=O)(=O)Cc3ccccc3)CC2)nc1,.,-6,-12,.,0,-1,-24,.,
CC(=O)Nc1ccc(S(=O)(=O)Nc2cc(Cl)ccc2N2CCOCC2)cc1,.,16,-3,.,1,1,1,.,
COc1ccccc1N1C(=O)C2CC=CC(C)C2C1=O (configuration not stated),.,.,.,4,-1,7,-11,-17,
CC(=O)Nc1ccc(S(=O)(=O)N2CCC3(CC2)CC(=O)c2ccccc2O3)cc1,i,.,-10,.,-4,-6,.,.,
COc1cc([N+](=O)[O-])cc([N+](=O)[O-])c1NC(=O)N1CCOCC1,i,-53,-9,11,0,3,.,-10,
CC(=O)NN1C(=O)/C(=C\c2ccc(Br)o2)SC1=S,i,32,7,-2,52,74,.,95,eIF4H inh retest=-6;PABP polyA inh retest=4
COc1ccc(S(=O)(=O)N2CCCCCC2)cc1NS(=O)(=O)c1cc(C(=O)O)cc(C)c1C,.,.,-26,.,1,0,-15,.,
Cc1nc(-c2cccc(-c3noc(C)n3)c2)no1,i,-27,-5,3,-2,-3,-10,2,
CSc1ccc(/C=N/NC(=O)c2ccccc2Cl)cc1,i,-6,33,38,4,2,-10,0,
OC1CCCC1NCc1ccnc2cc(Cl)ccc12 (configuration not stated),.,-12,.,.,-2,-4,-27,.,
COc1ccc(C(=O)Nc2ccc(NC(=O)CSc3nnc(-c4ccncc4)n3C)cc2)cc1,i,-3,3,2,-1,1,-2,25,
Cc1ccc(S(=O)(=O)N2CCN(C(=O)CSc3nccn3C)CC2)cc1,i,-12,-26,-8,2,2,-20,-8,

# This part in full, from the start:
SMILES,Rce1 inhib,HIV Env fusion,CSC inhib,PABP polyA inh,MT1-MMP act inh,MT1-MMP act inh RFP,Yeast UUG start,eIF4H inh,others
CC(C)=CCc1c(O)c(CC=C(C)C)c2occ(-c3ccc(O)cc3)c(=O)c2c1O,i,.,100*,9,-5,-9,-6,-11,
O=C(Nc1c(C(=O)N2CCOCC2)cnn1-c1ccccc1)c1ccccc1,i,-52,3,0,0,3,-19,-2,
CSC(=O)CC(=O)NC(=O)c1ccccc1,i,-23,-3,7,-5,-2,-10,-2,
CCN(CC)S(=O)(=O)c1ccc(NC(=O)COC(=O)CNC(=O)C2CCCCC2)cc1,.,-14,.,.,1,4,-2,.,
NS(=O)(=O)c1ccc(N2CCN(S(=O)(=O)Cc3ccccc3)CC2)nc1,.,-6,-12,.,0,-1,-24,.,
CC(=O)Nc1ccc(S(=O)(=O)Nc2cc(Cl)ccc2N2CCOCC2)cc1,.,16,-3,.,1,1,1,.,
COc1ccccc1N1C(=O)C2CC=CC(C)C2C1=O (configuration not stated),.,.,.,4,-1,7,-11,-17,
CC(=O)Nc1ccc(S(=O)(=O)N2CCC3(CC2)CC(=O)c2ccccc2O3)cc1,i,.,-10,.,-4,-6,.,.,
COc1cc([N+](=O)[O-])cc([N+](=O)[O-])c1NC(=O)N1CCOCC1,i,-53,-9,11,0,3,.,-10,
CC(=O)NN1C(=O)/C(=C\c2ccc(Br)o2)SC1=S,i,32,7,-2,52,74,.,95,eIF4H inh retest=-6;PABP polyA inh retest=4
COc1ccc(S(=O)(=O)N2CCCCCC2)cc1NS(=O)(=O)c1cc(C(=O)O)cc(C)c1C,.,.,-26,.,1,0,-15,.,
Cc1nc(-c2cccc(-c3noc(C)n3)c2)no1,i,-27,-5,3,-2,-3,-10,2,
CSc1ccc(/C=N/NC(=O)c2ccccc2Cl)cc1,i,-6,33,38,4,2,-10,0,
OC1CCCC1NCc1ccnc2cc(Cl)ccc12 (configuration not stated),.,-12,.,.,-2,-4,-27,.,
COc1ccc(C(=O)Nc2ccc(NC(=O)CSc3nnc(-c4ccncc4)n3C)cc2)cc1,i,-3,3,2,-1,1,-2,25,
Cc1ccc(S(=O)(=O)N2CCN(C(=O)CSc3nccn3C)CC2)cc1,i,-12,-26,-8,2,2,-20,-8,
Cn1nc(C(=O)OCCN2C(=O)c3ccccc3C2=O)c2ccccc2c1=O,i,3,-16,0,6,1,4,5,
Cc1ccc(O)c(C(=O)c2cc(C#N)c(=O)n(-c3c(C)n(C)n(-c4ccccc4)c3=O)c2)c1,i,-35,1,11,.,.,10,20,
On1c(-c2ccccc2)nc2ncccc21,i,-10,-8,5,0,1,-10,0,
COC(=O)c1c(NC(=O)CSc2ncn[nH]2)sc(C)c1C,i,-24,-6,.,-3,-2,-22,.,
COC(=O)c1cc2ccsc2n1CC(=O)NCC1CCCO1 (configuration not stated),.,.,1,-1,1,-6,-31,-11,
COCCNC(=O)c1ccccc1NC(=O)c1ccc(Cl)c(S(=O)(=O)Nc2ccc(C)cc2C)c1,i,.,-3,6,9,-5,-4,13,
Cc1ccc(CN2CCN(CC(=O)N=Nc3c(O)[nH]c4ccccc34)CC2)cc1,i,11,0,36,-1,-5,.,-2,
CCCCCn1c(CN2CCN(C(=O)OCC)CC2)nc2c1c(=O)n(C)c(=O)n2C,i,.,-17,.,-2,-6,-8,.,
O=C(CN(c1ccccc1)S(=O)(=O)c1ccccc1)NCCSCc1ccco1,i,.,14,22,1,2,-4,81*,eIF4H inh retest=84*;PABP polyA inh retest=44
O=C(COC(=O)C1(c2ccc(F)cc2)CCCC1)N1CCOCC1,i,.,-16,11,0,1,-3,-1,
O=C(NN=Cc1ccccc1Cl)c1ccc(-n2cnnn2)cc1,.,.,1,.,0,0,-4,.,
CCc1nc2c(OCc3cc(Cl)cc(Cl)c3)cccn2c1N(C)C(=O)c1ccccc1F,.,0,.,.,-8,-9,-20,.,
Nc1ccc[n+](Cc2ccccn2)c1,i,.,-8,16,1,1,-14,0,
COc1cc(NC(=O)COc2ccccc2Cl)ccc1NC(=O)c1cccs1,i,-12,-2,-6,.,.,-6,-5,
CCCCn1c(CNC(=O)c2cccs2)nc2ccccc21,i,-27,-5,-1,-7,-4,-2,2,
Cc1ccc2nc(SCC(=O)N3CCC(C)CC3)nc(=O)n2c1,i,-44,1,.,4,4,-6,.,
COC(=O)[C@H](CCSC)NC(=O)NCc1cccs1,i,16,-10,-1,-6,-4,-13,-9,
CCOc1cc(N2CCOCC2)c(OCC)cc1NC(=O)C1=NN(c2cccc(C)c2)C(=O)CC1,i,-4,60,-13,-5,-7,.,-2,
COc1ccc(C(=O)COC(=O)C(C(C)C)N2C(=O)C3C4C=CC(C4)C3C2=O)cc1 (configuration not stated),i,-8,-11,-3,0,-3,-1,3,
Cc1ccc(CN2CCN(/N=C/c3cc(Br)ccc3F)CC2)cc1,.,5,31,11,-1,0,12,-7,
CCCC(=O)C1=C(N2CCCCC2)CC(C)(C)C(C(=O)OC)C1=O (configuration not stated),i,3,-5,-2,3,2,.,4,
O=C(COCc1cc(-c2ccc3c(c2)OCO3)on1)N1CCN(c2cccc(C(F)(F)F)c2)CC1,i,-6,119*,-13,2,4,-27,-6,
Cc1ccc(S(=O)(=O)n2cc(C=O)c3ccccc32)cc1,i,8,11,-2,3,-4,.,-7,
O=c1[nH]cc(S(=O)(=O)c2ccccc2)[nH]1,i,-1,0,0,0,4,.,2,
CCc1nnc(NC(=O)C2CCCN2C(=O)Nc2ccccc2OC)s1 (configuration not stated),i,-63,-18,-7,3,5,-19,1,
O=C(Nc1ccc2c(c1)OCCO2)c1cnn(-c2ccccc2)n1,.,-43,.,.,2,7,-30,.,
CC(=O)c1cccc(NC(=O)c2cc3ccccn3n2)c1,i,.,-8,3,3,-4,-22,-2,
O=C(CN1CCNC(=O)C1)NCCc1ccc(Cl)cc1Cl,i,-3,-7,-1,-4,-4,.,9,
O=C(Nc1ccc(Cl)cc1)[C@@H]1[C@@H]2C(=O)N(c3cccc(F)c3)C(=O)[C@@H]2[C@H]2C=CC=NN21,i,-2,-7,3,0,6,.,2,

# Arranged by SMILES length (highest first): some entries from above.
SMILES,Rce1 inhib,HIV Env fusion,CSC inhib,PABP polyA inh,MT1-MMP act inh,MT1-MMP act inh RFP,Yeast UUG start,eIF4H inh,others
O=C(Nc1ccc(Cl)cc1)[C@@H]1[C@@H]2C(=O)N(c3cccc(F)c3)C(=O)[C@@H]2[C@H]2C=CC=NN21,i,-2,-7,3,0,6,.,2,
Cc1ccc(CN2CCN(/N=C/c3cc(Br)ccc3F)CC2)cc1,.,5,31,11,-1,0,12,-7,
Cc1ccc2nc(SCC(=O)N3CCC(C)CC3)nc(=O)n2c1,i,-44,1,.,4,4,-6,.,

# Continuation:
SMILES,Rce1 inhib,HIV Env fusion,CSC inhib,PABP polyA inh,MT1-MMP act inh,MT1-MMP act inh RFP,Yeast UUG start,eIF4H inh,others
COc1cc(NC(=O)c2ccc(OC)c([N+](=O)[O-])c2)ccc1NC(=O)c1ccco1,i,-3,10,4,5,2,-2,5,
COCCn1c(=NC(=O)CSCC(=O)Nc2cc(C)on2)sc2cc(C(=O)OC)ccc21,.,-20,-11,9,-1,-2,.,3,
Nn1c(-c2ccc(O)cc2)nnc1-c1ccc(O)cc1,i,-10,-18,-5,1,1,-8,-8,
O=C(NCC1CCN(S(=O)(=O)c2ccccc2)CC1)Nc1ccccc1,i,12,-5,6,-1,-2,.,-3,
COc1ccc(C(=O)NC(CC(C)C)C(=O)O)cc1 (configuration not stated),.,-13[16.7 µM],-6,.,0,1,8&-19,.,
COc1ccccc1N1CCN(C2CCCN(C(=O)Cn3cccn3)C2)CC1 (configuration not stated),i,-11,24,3,-2,0,-6,-16,
OC[C@@H]1CN(Cc2cccs2)C[C@H](n2cnc3c(NCc4ccc(F)cc4)ncnc32)O1,.,43,.,.,2,-9,-6,.,
Cc1nc(N)[nH]c(=O)c1CCC(=O)OCC(C)C,i,12,-6,-10,3,4,-19,0,
COc1ccccc1-[n+]1c(C)cc(/C=C2\Sc3ccccc3N2C)cc1C,i,-9,68,10,-232,-35,-11,2,
O=C(NCC(=O)N1CCN(c2ccccc2)CC1)c1cccs1,i,12,-3,-1,-1,-1,-12,-10,
Cc1cccc(N2CCN(C(=O)N3CCOCC3)CC2)c1C,i,-20,2,1,1,-2,.,4,
COc1ccc(S(=O)(=O)NNC(=O)c2csc(-n3nc(C)cc3C(F)(F)F)n2)cc1,i,-104,-7,-6,15,-7,-14,-3,
CC(C(=O)Nc1ccccc1C(=O)N1CCOCC1)N(c1ccccc1)S(C)(=O)=O (configuration not stated),i,14,-13,-6,-5,-1,-12,9,
CC1CN(C(=O)c2cc3cc(F)ccc3[nH]2)CC(C)O1 (configuration not stated),i,18,-14,0,-1,0,-3,-9,
O=C(NCc1ccc(C(F)(F)F)cc1)C1CC(c2c(Cl)cccc2Cl)=NO1 (configuration not stated),i,1,18,-11,5,-2,-8,-12,
COc1ccc(C(=O)N/N=C(\C)CC(=O)Nc2ccccn2)cc1OC,i,0,-7,2,5,5,-21,-8,
CCCC(=O)C1=C(O)C(C(=O)OC)C(C)(C)CC1=Nc1ccncc1 (configuration not stated),i,.,-11,-5,0,-1,-7,-6,
COc1ccc(CN2CCCC(C(=O)Nc3cccc(-n4cccn4)c3)C2)cc1 (configuration not stated),i,-5,7,-2,0,1,-8,-8,
Cc1nc2ccc(NC(=O)c3ccc(Cl)c([N+](=O)[O-])c3)cc2s1,i,19,21,-1,-2,-4,-16,-14,

# Source: PubChem
